High-throughput results (PubChem)
P. yoelii liver: Plasmodium liver-stage growth inhibition, dose response, imaging, Malaria Box, P. yoelii, HepG2-A16-CD81EGFP (AID 602156); P. yoelii liver stage in HepG2-A16-CD81EGFP, imaging; first-round cut-off not given here; calls after a first round at 10 µM; hits with a dose series show IC50 in µM; 5,700 compounds, 4.8% hits; in the data active = a potency from the dose series;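 note: infected cells exposed to compound for 48 hours before fixation; stained parasite area by imaging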
The depositor's hits bear a star; i = inactive. These rows are one share of the data (hit frequency here may not be typical).

SMILES	P. yoelii liver
CCCN(CCC)[P+](CCC)(c1ccc([P+](CCC)(N(CCC)CCC)N(CCC)CCC)cc1)N(CCC)CCC	0.28µM*
CN(C)c1ccc(C=C2SC(=Nc3ccccc3Cl)NC2=O)cc1	i
CCn1c(CSc2nc(C)cc(C)n2)nnc1SCC(N)=O	i
Oc1c(CN2CCN(Cc3ccc4cccnc4c3O)CC2)ccc2cccnc12	0.097µM*
O=C(COc1ccccc1)Nc1nccs1	i
COc1ccc(C=Cc2ccc3ccccc3[n+]2C)cc1OC	i
N#Cc1cc2nc3c(nc2cc1C#N)-c1ccccc1C3=O	i
Cc1ccc2[nH]c3c(NCCN4CCCCC4)ncnc3c2c1	i
COc1ccc(C(OCC(=O)N2CCN(Cc3ccccc3)CC2)c2ccc(F)cc2)cn1 (stereo not drawn)	i
CCN1C(=O)NC(c2cccc(NC(=O)Nc3cc(C(F)(F)F)cc(C(F)(F)F)c3)c2)C(C(=O)OC(C)C)=C1C (stereo not drawn)	i
CCn1c(=NC(=O)c2cc(=O)c3ccccc3o2)sc2c(OC)ccc(OC)c21	i
O=C(CCl)Nc1ccc2c(c1)OCO2	i
O=C1c2cc([N+](=O)[O-])ccc2-n2c1nc1ccccc1c2=O	i
c1ccc2cc3c(Nc4ccc(N5CCCCC5)cc4)ccnc3cc2c1	i
CC[n+]1c(/C=C/c2ccc(OC)cc2)ccc2ccccc21	i
O=C(CC1SC(=Nc2ccccc2)NC1=O)Nc1cc(Cl)ccc1Cl (stereo not drawn)	i
COc1ccccc1NC(=S)N1CCN(c2ccc([N+](=O)[O-])cc2)CC1	i
c1cncc(CCNc2nccn3c(-c4cccc5ccccc45)cnc23)c1	i
CCCCCCCCn1c(C)[n+](C)c2cc(Cl)c(Cl)cc21	0.42µM*
COc1cccc(CCN2Cc3ccc(C(=O)NC(C)C)cc3N=C2c2cccnc2)c1	i
CCN1/C(=C/c2cccc[n+]2C)Sc2ccccc21	i
O=C(c1cccc([N+](=O)[O-])c1)c1ccc(Cl)c(Cl)c1	3.8µM*
COc1ccccc1CNC(=O)c1nn(-c2ccc(Cl)cc2)c(=O)c2ccccc12	i
O=C(Nc1ccc(Br)cn1)c1ccc(Oc2cc(Oc3cccc(Cl)c3)cc([N+](=O)[O-])c2)cc1	i
COc1ccc(NC(=O)N(CCCNS(=O)(=O)c2ccc([N+](=O)[O-])cc2)c2ccc(Oc3ccccc3)cc2)cc1	i

Next part:
SMILES	P. yoelii liver
CSc1oc(-c2ccccc2)nc1C(N)=O	i
COc1ccc2[nH]c3c(=O)n(C)cnc3c2c1	i
Cc1ccc(Nc2nc3c(N)nnc(N)c3nc2Nc2ccc(C)cc2)cc1	0.49µM*
CCCN1CCC(N2C[C@@H](NC3CCCCCC3)C[C@H]2C(=O)NCCc2ccc3c(c2)OCO3)CC1	i
CCOC(=O)C(=CNc1ccc(I)cn1)C(=O)OCC	i
CCOC(=O)c1ccc(-n2c(C)cc(C=C3SC(=Nc4ccc(Cl)cc4)NC3=O)c2C)cc1	i
O=C(CCn1c(=S)oc2ccccc21)N1CCN(c2ccccc2)CC1	i
C1=C(c2ccc(CN3CCCCC3)cc2)N2CCN=C2c2ccccc21	i
O=C(NCCCCNc1ccnc2cc(Cl)ccc12)c1ccc(Br)cc1	i
CCCNC(=O)N1CCC2(CC1)CC(=O)c1cc(C)ccc1O2	i
CCN(CC)CCCC(C)Nc1ccnc2ccc(-c3ccccc3)cc12 (stereo not drawn)	i
CC(C)CCNCC(O)Cn1c2ccc(Cl)cc2c2cc(Cl)ccc21 (stereo not drawn)	i
Cc1ccc(O)c(C(=O)c2c[nH]c(-c3nc4ccccc4[nH]3)c2)c1	i
Cn1cc([N+](=O)[O-])c(C(=O)NN=Cc2c[nH]c3ccccc23)n1	i
Cc1cc(NC2CCCCC2)nc(NCc2ccccc2)n1	i
Cc1occc1C(=O)NN=C/C(Br)=C/c1ccccc1	i
CC12CN3CC(C)(CN(C1)C3c1ccccc1)C2=O (stereo not drawn)	i
O=C(Nc1ccc(Cl)cc1)N1CCN(c2ccc3nncn3n2)CC1	i
CCCCCCN(C(=O)Nc1ccccc1OC)C(C)c1nc2ccccc2c(=O)n1-c1ccccc1OCC (stereo not drawn)	i
CCCOc1ccc(C=Nc2ccc(S(=O)(=O)Nc3ccccn3)cc2)cc1	i
CCc1ccccc1N(CC(=O)NC1CCCCC1)C(=O)CCC(=O)Nc1ccccn1	i
Fc1ccc(CSc2ccc3nnc(-c4cccnc4)n3n2)cc1	i
C=CC[N+]1(CC#Cc2cccc3ccccc23)CCCCC1	0.91µM*
NNc1ncnc2nc[nH]c12	i
CCOC(=O)CCC(=O)Oc1cc(C(C)(C)C)nn1-c1ccc(Cl)c(Cl)c1	i

Further entries follow:
SMILES	P. yoelii liver
Cc1cc(N2CCCC2)nc2ccc(NC(=S)NCCCN3CCc4ccccc4C3)cc12	i
O=C(NN=Cc1cccc(Cl)c1)C1COc2ccccc2O1 (stereo not drawn)	i
O=c1c(NCc2ccco2)nc2cc(Cl)ccc2n1CCNc1ncc(C(F)(F)F)cc1Cl	i
O=C1c2cccc(N3CCCC(C(=O)N4CCCCC4c4cccnc4)C3)c2C(=O)N1Cc1ccc(C(F)(F)F)cc1 (stereo not drawn)	i
c1ccc(OCCOc2ccc(Nc3ccnc4cc5ccccc5cc34)cc2)cc1	0.067µM*
CCN1CCC(N2C[C@H](n3cc(C(=O)OC)nn3)C[C@H]2C(=O)NCc2cccc(C(F)(F)F)c2)CC1	i
CCCn1c(=O)c2[nH]c(C3CCCC3)nc2n(CCC)c1=O	i
COC(=O)C1CCCN1S(=O)(=O)c1ccc2ccccc2c1 (stereo not drawn)	i
Cc1cc(S(=O)(=O)NC(Cc2ccc([N+](=O)[O-])cc2)C(=O)O)c(Cl)cc1Cl (stereo not drawn)	i
CCOc1ccc(Nc2nc(NCc3ccccc3)c3ccccc3n2)cc1	0.48µM*
COC(F)(C(=O)Nc1c(C)n(C)n(-c2ccccc2)c1=O)C(F)(F)F (stereo not drawn)	i
OC1(c2cccc3ccccc23)CCN(Cc2ccccc2)C1 (stereo not drawn)	i
CCN1C(=Cc2ccc3cc(OC)ccc3[n+]2CC)[Se]c2ccccc21	i
O=C(O)c1cc([N+](=O)[O-])ccc1Oc1cncc(Cl)c1	i
COCC(=O)Oc1ccccc1-c1nc2cc(C)ccn2c1NC(C)(C)CC(C)(C)C	i
CC1(C)Cc2nc3ccccc3c(NCc3ccc(Cl)cc3)c2C(O)C1 (stereo not drawn)	i
COc1cc2ccccc2cc1C(=O)NCCOC12CC3CC(CC(C3)C1)C2	i
CN(C)CCn1c(=N)n(CC(O)c2ccc(Cl)c(Cl)c2)c2ccccc21 (stereo not drawn)	i
CCOC(=O)c1cnc2ccc(OC)cc2c1NCc1cccs1	0.19µM*
CC(C)CNC(=O)c1cnc(NCCCN)nc1NC1CCCC1	i
Cc1ccc2nc(-c3ccc(NC(=O)c4ccc(S(=O)(=O)N5CC(C)CC(C)C5)cc4)cc3)sc2c1 (stereo not drawn)	i
COc1cccc2c1C(=O)c1c(O)c3c(c(O)c1C2=O)C[C@](O)(C(C)=O)C[C@@H]3O[C@H]1C[C@@H](N)[C@H](O)[C@H](C)O1	i
COc1ccc(CCNc2nc(NCCCN3CCCCC3C)ncc2C(=O)NCc2ccccc2)cc1OC (stereo not drawn)	i
O=[N+]([O-])c1cc(C(F)(F)F)cc([N+](=O)[O-])c1Sc1cccc2cccnc12	i
CCC(=O)NCc1nnc(SCc2cccc(C(F)(F)F)c2)n1-c1cccc(OC)c1	i

At a glance, some entries already given:
SMILES	P. yoelii liver
C1=C(c2ccc(CN3CCCCC3)cc2)N2CCN=C2c2ccccc21	i
O=C(NCCCCNc1ccnc2cc(Cl)ccc12)c1ccc(Br)cc1	i
CCCNC(=O)N1CCC2(CC1)CC(=O)c1cc(C)ccc1O2	i
CCN(CC)CCCC(C)Nc1ccnc2ccc(-c3ccccc3)cc12 (stereo not drawn)	i
CC(C)CCNCC(O)Cn1c2ccc(Cl)cc2c2cc(Cl)ccc21 (stereo not drawn)	i
Cc1ccc(O)c(C(=O)c2c[nH]c(-c3nc4ccccc4[nH]3)c2)c1	i
Cn1cc([N+](=O)[O-])c(C(=O)NN=Cc2c[nH]c3ccccc23)n1	i
Cc1cc(NC2CCCCC2)nc(NCc2ccccc2)n1	i
Cc1occc1C(=O)NN=C/C(Br)=C/c1ccccc1	i
CC12CN3CC(C)(CN(C1)C3c1ccccc1)C2=O (stereo not drawn)	i
O=C(Nc1ccc(Cl)cc1)N1CCN(c2ccc3nncn3n2)CC1	i
CCCCCCN(C(=O)Nc1ccccc1OC)C(C)c1nc2ccccc2c(=O)n1-c1ccccc1OCC (stereo not drawn)	i
CCCOc1ccc(C=Nc2ccc(S(=O)(=O)Nc3ccccn3)cc2)cc1	i
CCc1ccccc1N(CC(=O)NC1CCCCC1)C(=O)CCC(=O)Nc1ccccn1	i
Fc1ccc(CSc2ccc3nnc(-c4cccnc4)n3n2)cc1	i
C=CC[N+]1(CC#Cc2cccc3ccccc23)CCCCC1	0.91µM*
NNc1ncnc2nc[nH]c12	i

Following part:
SMILES	P. yoelii liver
CCC(c1nc2ccccc2c(=O)n1-c1ccc(Cl)cc1C)N(CCc1ccccc1)C(=O)c1cccc(OC)c1 (stereo not drawn)	i
Cc1cc(Nc2ccc([N+](=O)[O-])cc2O)nc2ccccc12	i
CC1CN(C(=O)C(Cc2c[nH]c3ccccc23)NC(=O)CCl)CCN1C(=O)Nc1ccccc1 (stereo not drawn)	i
CCN(CC)c1ccc(/C=C\c2cccc[n+]2CC)cc1	i
CCN1CC=C2C(C#N)=C(N)C(C#N)(C#N)C(c3ccc(C)s3)C2C1 (stereo not drawn)	i
Cc1cc(C)c2c(c1)OCN(Cc1ccccc1Cl)C2	i
O=C(NCc1ccccc1)NC1CC2CCCC(C1)N2Cc1ccccc1 (stereo not drawn)	i
CCN(CC)CCN(Cc1cc2ccc(C)cc2[nH]c1=O)C(=S)NC(C)c1ccccc1 (stereo not drawn)	0.88µM*
COc1ccc(C=NNc2cc(C)nc3ccc(OC)cc23)c(OC)c1	i
Cc1ccc(NC(=O)N2CCN(CCN(Cc3ccc(F)cc3)C(=O)c3ccccc3C)CC2)cc1	i
CCN1CCN(c2cc(C)c3cc(NC(=O)c4ccc(F)c([N+](=O)[O-])c4)ccc3n2)CC1	i
Oc1ccc(-c2ccc(F)cc2)cc1CNCCN1CCOCC1	i
COc1ccc(C2C(C(=O)O)c3ccccc3C(=O)N2c2ccc(C)cc2)cc1OC (stereo not drawn)	i
COc1ccc2nc(-c3ccccc3)cc(NCCN(C)C)c2c1	0.57µM*
CCOc1ccccc1NC(=O)Cn1c(=O)n(Cc2ccccc2)c(=O)c2c(C)c(C(=O)N(C)C)sc21	i
O=C(CN1CCCC1C(c1ccccc1)c1ccccc1)N1CCSCC1 (stereo not drawn)	i
CC[n+]1c(C)n(-c2ccccc2)c2ccc(C3Nc4ccccc4S3)cc21 (stereo not drawn)	i
COc1ccc(S(=O)(=O)Nc2ccc(N3CCC(Cc4ccccc4)CC3)c(C(=O)NC(C)C)c2)cc1	i
Cc1ncc([N+](=O)[O-])n1CCOC(=O)NC(Nc1ccc(Br)cc1)C(Cl)(Cl)Cl (stereo not drawn)	i
CCOC(=O)c1cc(-c2ccc(OC)cc2)n(CCC(=O)Nc2cccc(C(C)=O)c2)c1C	i
O=C(COC(=O)c1ccc2c(c1)C(=O)N(c1ccc3ccccc3c1)C2=O)c1ccc(Br)cc1	i
CCC(C)(C)n1nnnc1C(c1cc2cc(C)cc(C)c2[nH]c1=O)N1CCN(c2ccc(O)cc2)CC1 (stereo not drawn)	i
Cc1nnc2sc(SCc3cccc([N+](=O)[O-])c3)nn2c1=O	i
CCCN(CC(=O)Nc1cc(C(C)(C)C)nn1-c1cccc(C)c1C)C(=O)C1CCCCC1	i
CN(C)c1ccc(/C=C2/SC(=Nc3ccccc3Cl)NC2=O)cc1	i

The listing continues.
SMILES	P. yoelii liver
O=C(NCc1ccccc1)c1cnc(NCCCn2ccnc2)nc1NCC1CCCCC1	i
CC1CCCCN1CCCN(Cc1c2ccccc2cc2ccccc12)C(=O)c1ccccc1Cl (stereo not drawn)	i
O=C(Nc1cc(Cl)ccc1O)c1cnn2c(C(F)(F)F)cc(-c3ccc(F)cc3)nc12	i
Clc1ccccc1Nc1nc2nonc2nc1Nc1cccc(Br)c1	i
Cc1c(Cl)cccc1-n1c(C(C)N(CCc2ccccc2)C(=O)COc2ccccc2)nc2ccccc2c1=O (stereo not drawn)	i
CCCCOc1ccc(/C=C/C(=O)NCc2ccco2)cc1	i
COc1ccc(C2Nc3ccc(C(C)=O)cc3C3C=CCC32)cc1[N+](=O)[O-] (stereo not drawn)	i
CC(=O)Nc1c(C)cc(Cl)cc1Cl	i
O=c1c2ccccc2[nH]c2ccc(F)cc12	0.22µM*
Cc1cc(C)cc(-n2c(C)cc(C=C3SC(=Nc4ccc(Br)cc4)NC3=O)c2C)c1	i
Cn1nc(C(F)(F)F)c(-c2ccc(F)cc2)c1NC(=O)Nc1ccc(F)cc1	i
Cc1cc(C)cc(Nc2cc(C)nc3nc(C)nn23)c1	i
CC1Cc2ccccc2N1C(=O)Cn1c(=O)oc2ccccc21 (stereo not drawn)	i
CCOC(=O)C1=C(C)NC2=C(C(=O)C(C(=O)OCC)C(c3ccccc3OC)C2)C1c1cccs1 (stereo not drawn)	i
COc1ccc(C2C(C(=O)Nc3cnc4ccccc4c3)c3ccccc3C(=O)N2Cc2ccc(F)cc2)cc1 (stereo not drawn)	i
COc1ccc(NC2=CC(=O)CC(c3ccccc3)C2)c(OC)c1 (stereo not drawn)	i
COC(=O)C1=C(O)/C(=C\c2cc(C)n(-c3cc(C)ccc3OC)c2C)N=C1C	i
CC(C)c1ccc(NC(=O)C(Cc2cccs2)c2nn[nH]n2)cc1 (stereo not drawn)	i
CCCCOc1ccc(NC2=NC3(CCCC3)N=C(N)N2)cc1	i
O=C1N(Cc2cc3ccccc3s2)CC2CN(Cc3ccsc3)CCN12 (stereo not drawn)	0.026µM*
O=C(NCC1CCCO1)c1cnc(NCCCn2ccnc2)nc1NCCc1ccccc1 (stereo not drawn)	i
